# TDP1 block – blocks human tyrosyl-DNA phosphodiesterase 1. recombinant TDP1, AlphaScreen DNA substrate cleavage. AID 485290. 350,000 compounds, 0.28% hits. Potency, µM (top dose mostly 130 µM), without a hit: at the top dose activity change, negative = inhibition, most hits filed as inhibitors. Q9NUW8; further: nearly all actives have a fitted effect of over 40% in size
# Target sequence (Q9NUW8 whole entry, looked up): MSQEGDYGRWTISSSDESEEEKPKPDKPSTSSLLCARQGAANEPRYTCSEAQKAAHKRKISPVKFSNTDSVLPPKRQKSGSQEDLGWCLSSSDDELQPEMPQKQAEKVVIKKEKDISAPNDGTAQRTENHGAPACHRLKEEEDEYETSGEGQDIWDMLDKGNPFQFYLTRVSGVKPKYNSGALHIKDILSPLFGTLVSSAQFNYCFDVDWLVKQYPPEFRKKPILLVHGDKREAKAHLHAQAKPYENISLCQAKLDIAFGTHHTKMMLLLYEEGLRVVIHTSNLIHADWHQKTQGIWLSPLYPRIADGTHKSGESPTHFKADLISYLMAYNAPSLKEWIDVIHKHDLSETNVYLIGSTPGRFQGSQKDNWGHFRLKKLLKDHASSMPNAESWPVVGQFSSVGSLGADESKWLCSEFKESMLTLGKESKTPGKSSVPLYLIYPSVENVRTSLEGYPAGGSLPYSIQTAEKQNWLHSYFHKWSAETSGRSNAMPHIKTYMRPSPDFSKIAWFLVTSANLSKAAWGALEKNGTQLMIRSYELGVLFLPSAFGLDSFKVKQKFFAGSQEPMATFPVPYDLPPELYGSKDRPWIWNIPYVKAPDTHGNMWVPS
#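 Recombinant human Tdp1 (E. coli-expressed, 1 nM final) preincubated with compounds 15 min at room temperature, then 5'-biotin/3'-phosphotyrosine-FITC DNA substrate (15 nM final) added for 5 min. AlphaScreen beads (10 ug/ml final) added 10 min; cleavage lowers signal.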
# N370S GC mod – inhibits or activates N370S mutant glucocerebrosidase; P04062; N370S GC spleen homogenate, 4MU-glucoside fluorescence; Potency, µM (top dose mostly 59.4 µM), without a hit: at the top dose activity change, negative = inhibition, usual class: inhibitors; 330,000 compounds, 0.092% hits; AID 2101;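 further: 0% = full enzyme activity and -100% = no enzyme basal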
# Active calls of the source: *; u = inconclusive; x = no result given; & = joins results of further samples; [ ] = dose if it differs, or a comment. The call rests on the fitted dose curve; in most records, active means well fitted curve in the direction sought with a large enough effect; inconclusive means small, poorly fitted or top-dose-only effect, or another doubt; inactive means no such curve, though single readings can be large; an effect the other way counts as inactive or inconclusive. Unless noted, on the % scale 0 is the no-effect control and ±100 the full control effect; potency means the concentration at half of the fitted maximal effect. These rows are one share of the data; most or all hits stand in other tables.
# The first 2 entries (preview)
entry | SMILES | TDP1 block | N370S GC mod
1 | COc1cc(C2CC(=O)Oc3cc(OC)c(OC)c(OC)c32)cc(OC)c1OC (centres undefined) | 0%[56.1 µM] | x
2 | COc1ccccc1C(=O)NCCC(=O)N1CCCCC1 | 5% | -3%

# The list itself (from the top)
entry | SMILES | TDP1 block | N370S GC mod
1 | COc1cc(C2CC(=O)Oc3cc(OC)c(OC)c(OC)c32)cc(OC)c1OC (centres undefined) | 0%[56.1 µM] | x
2 | COc1ccccc1C(=O)NCCC(=O)N1CCCCC1 | 5% | -3%
3 | COc1ccc(N(CC(=O)Nc2cccc(C(C)=O)c2)S(=O)(=O)c2ccc(NC(C)=O)cc2)cc1 | 5% | u
4 | CSc1ncccc1C(=O)OCC(=O)Nc1cc(C(F)(F)F)ccc1N1CCOCC1 | 0% | u
5 | CCOC(=O)c1c(C)c(C(=O)NC2CCCCC2)c(C)n1CC | 0% | 0%
6 | CCc1noc(C)c1C(=O)N1CCCC(C(=O)c2cc(F)ccc2F)C1 (centres undefined) | -6% | -4%
7 | O=C(COC(=O)C1CCN(S(=O)(=O)c2cccs2)CC1)Nc1ccccc1Br | -2% | 4%
8 | CCS(=O)(=O)N1CCN(Cc2nc3ccccc3c(=O)[nH]2)CC1 | -2% | 9%
9 | Clc1ccc(CO/N=C2\CCCc3nonc32)c(Cl)c1 | -3% | 8%
10 | ONC(=Nc1ccccc1Cl)c1ccccc1Cl | 3% | 3%
11 | CN(C)c1cccc(-c2csc(N3CCC(C(N)=O)CC3)n2)c1 | -1% | x
12 | CN(CCCNC(=O)C1CCN(S(=O)(=O)N2CCC3(CC2)OCCO3)CC1)Cc1ccccc1 | 1% | 1%
13 | CCOc1ccc2nc(NC(=O)Cc3cccs3)sc2c1 | 0% | 12%
14 | CC(C#N)Sc1nc2ccccc2c(=O)n1-c1ccccc1 (centres undefined) | 4% | 1%
15 | COc1ccc(OC)c(CN2CCN(C(=O)CN3C(=O)NC4(CCCC4)C3=O)CC2)c1 | -3% | 2%

entry | SMILES | TDP1 block | N370S GC mod
16 | Cn1cnc(S(=O)(=O)Nc2ccc(OC(F)F)cc2)c1 | 1% | -2%
17 | CCCCN(C)C(=O)Cn1nc(Cc2ccncc2)c2ccccc2c1=O | x | -6%
18 | Cc1cc(Cl)ccc1C(=O)C1CCCN(C(=O)c2cccc(N3CCCC3=O)c2)C1 (centres undefined) | 2% | -5%
19 | O=[N+]([O-])c1ccc(CN2CCN(c3ccc(Cl)cc3)CC2)o1 | x | 0%
20 | Cc1nnc(SCC(=O)NC2CCCCC2)s1 | 1% | 3%
21 | Cc1cc(OCC(=O)Nn2cnnc2)ccc1Br | 4% | -2%
22 | O=C(COC(=O)c1ccc[nH]c1=O)Nc1cc(S(=O)(=O)N2CCCCC2)ccc1Cl | 8% | 6%
23 | COc1ccc(/C=C/C(=O)N(C)C2(C)CCS(=O)(=O)C2)cc1 (centres undefined) | 2%[0.505 µM] | -5%
24 | O=S1(=O)CCOCCCN1Cc1ccccc1Br | x | 0%
25 | COc1ccc2[nH]cc(CCNC(=O)C3CCCNC3=O)c2c1 (centres undefined) | 9% | -4%
26 | COc1cc(C(=S)N2CCOCC2)ccc1OC(=O)c1ccccc1[N+](=O)[O-] | x | -9%
27 | Cc1cc(C)cc(NC(=S)N(CCN(C)C)C(C)c2cccnc2)c1 (centres undefined) | 3% | -2%
28 | Cc1nn(-c2ccccc2)c(N2CCCCC2)c1/C=N/NC(=O)c1ccncc1 | -14% | 9%
29 | CC1CCCC(NC(=O)CSc2nnc(C(F)(F)F)n2C)C1C (centres undefined) | 1% | x
30 | O=C1CC(c2cccnc2)c2cc3c(cc2N1)OCCO3 (centres undefined) | 2% | -17%

entry | SMILES | TDP1 block | N370S GC mod
31 | C/C(Cl)=C\Cn1c(Nc2cccc(C)c2)nc2c1c(=O)n(C)c(=O)n2C | 7% | -15%
32 | Clc1ncnc2c1oc1ccccc12 | -3% | 1%
33 | COc1cc(CCC(=O)Nc2cccc(C(F)(F)F)c2)cc(OC)c1OC | -8% | -4%
34 | CC(=O)N1c2ccc(S(=O)(=O)N3CCC(C(=O)N4CCN(c5cc(Cl)ccc5C)CC4)CC3)cc2CC1C (centres undefined) | 2% | -10%
35 | O=C(CSc1nnc(C2CC2)n1-c1ccccc1)N1CCCC1 | -1% | x
36 | C=CC[C@H]1Cc2c(cccc2[N+](=O)[O-])[C@H](CC=C)N1 | 0% | -5%
37 | O=C(Cc1ccccc1)NCC(=O)OCc1cccc([N+](=O)[O-])c1 | 1% | 0%
38 | COc1cc(Br)cc(/C=C/c2ccc3cccc(O)c3n2)c1O | x | -7%
39 | Cc1nc(C)c(NC(=O)N2CCc3ccccc32)cc1NC(=O)N1CCc2ccccc21 | 6% | -2%
40 | CN(C)/C=C(/C(=O)c1ccc(Cl)cc1)S(C)(=O)=O | 5% | -6%
41 | CC(C)NC(=O)N(C)C[C@@H]1Oc2ccc(NC(=O)CCN3CCOCC3)cc2CC(=O)N([C@@H](C)CO)C[C@@H]1C | 0% | x
42 | O=C(C(F)C(F)(F)F)N1CCN(c2ccccc2)CC1 (centres undefined) | 6% | 6%
43 | N#C/C(=C\c1ccccc1)C(=O)Nc1cccnc1 | -4% | 3%
44 | CCN(CC)S(=O)(=O)c1cccc(C(=O)Nc2ccccc2)c1 | 1% | 0%
45 | N#C/C(=C\C1=C(N2CCOCC2)C(=C\c2ccccc2)/CC1)C(=O)Nc1ccccc1F | 9% | 2%

entry | SMILES | TDP1 block | N370S GC mod
46 | Cc1cc2cccc(C)c2nc1SCC(=O)NNC(=O)c1ccco1 | -4% | -9%
47 | COc1ccc(C(C(=O)NC2CCCC2)N(C(=O)c2ccoc2C)c2ccccc2)cc1 (centres undefined) | 0% | -13%
48 | CC(C)CC(NC(=O)C1CCC(C)CC1)C(=O)NCc1cccnc1 (centres undefined) | 1% | -3%
49 | Cc1cc(C2CC(=O)Nc3ccccc3S2)c(C)s1 (centres undefined) | 1% | -26%
50 | COc1cc2c(cc1OC)CN(C(=O)CN1CCN(S(=O)(=O)c3ccc(C)c(C)c3)CC1)CC2 | 4% | -9%
51 | Cc1cc(NC(=O)c2ccccc2C)n(-c2cccc(F)c2)n1 | x | -7%
52 | Nc1nc(Cl)cc(N2CCC(c3cc(-c4ccc(Cl)cc4)n[nH]3)CC2)n1 | 3% | 21%
53 | CCc1c(C)c2ccc(OCC(=O)NCC3CCC(C(=O)O)CC3)cc2oc1=O (centres undefined) | x | -1%
54 | C=CCNC(=O)C1CCN(S(=O)(=O)c2ccc3ccccc3c2)CC1 | 4% | 0%
55 | Cc1ccc(S(=O)(=O)N2CCOCC2)cc1C(=O)N1CCC(Cc2ccccc2)CC1 | 10% | -11%
56 | CCCN1CCC(=O)N(CCSc2ccc(C)cc2)CC1 | 6%&-1% | -3%&1%
57 | CCC1Sc2ccc(S(=O)(=O)CCC(=O)Nc3ccccc3Br)cc2NC1=O (centres undefined) | 0% | u
58 | O=C(c1ccc(F)cc1)N1CCCC(C(=O)N2CCc3ccccc3C2)C1 (centres undefined) | 3% | -4%
59 | CC(C)(CO)N=Cc1c(O)[nH]c2ccccc12 | 4% | 1%
60 | CCc1ccc(S(=O)(=O)Nc2cccc(-c3ccc4nncn4n3)c2)s1 | 5% | 3%

# Sorted by the number under N370S GC mod (low to high): some entries from above.
entry | SMILES | TDP1 block | N370S GC mod
49 | Cc1cc(C2CC(=O)Nc3ccccc3S2)c(C)s1 (centres undefined) | 1% | -26%
55 | Cc1ccc(S(=O)(=O)N2CCOCC2)cc1C(=O)N1CCC(Cc2ccccc2)CC1 | 10% | -11%
50 | COc1cc2c(cc1OC)CN(C(=O)CN1CCN(S(=O)(=O)c3ccc(C)c(C)c3)CC1)CC2 | 4% | -9%
51 | Cc1cc(NC(=O)c2ccccc2C)n(-c2cccc(F)c2)n1 | x | -7%
48 | CC(C)CC(NC(=O)C1CCC(C)CC1)C(=O)NCc1cccnc1 (centres undefined) | 1% | -3%
59 | CC(C)(CO)N=Cc1c(O)[nH]c2ccccc12 | 4% | 1%

# Other compounds follow:
entry | SMILES | TDP1 block | N370S GC mod
61 | COc1cc(S(=O)(=O)N(Cc2cccs2)CC2CCCO2)ccc1-n1cnnn1 (centres undefined) | 5% | -10%
62 | CCCS(=O)(=O)N1CCCC(C(=O)N2CCCCC2)C1 (centres undefined) | x | -3%
63 | O=C(O)CCCC(=O)Nc1ccc(-n2ccc(C(F)(F)F)n2)cc1 | x | 9%
64 | CCOC(=O)C1CCN(S(=O)(=O)c2ccc3c(c2)CC(C)N3C(=O)C2CC2)CC1 (centres undefined) | 3% | -4%
65 | C/C(=C\C(=O)C(F)(F)F)Nc1ccc(C(F)(F)F)cc1 | 0% | 3%
66 | COc1ccc(OC)c(C(=O)c2ccc(C(=O)Nc3ccc(NC(C)=O)cc3)cc2)c1 | -6% | -15%
67 | Cc1ccc(C(=O)NCC(=O)NC2CCCCCC2)cc1 | 1% | -6%
68 | C=CCn1c(SCC(=O)Nc2cc(C)c(Cl)cc2OC)nnc1-c1ccco1 | 7% | 9%
69 | O=C(Nc1ccccc1C(F)(F)F)N1CCN(c2ccccn2)CC1 | 5% | 4%
70 | Cc1ccc(NC(=O)COC(=O)C(NS(=O)(=O)c2ccc(Cl)cc2)C(C)O)cc1C (centres undefined) | -1% | 6%
71 | CCCOc1ccc(C(=O)NC2CCSc3ccccc32)cc1 (centres undefined) | x | 0%
72 | CCCCNC(=O)CC1N=C2c3ccccc3N=C(SCC(=O)Nc3cccc(OC)c3)N2C1=O (centres undefined) | 2% | 11%
73 | C(/C=C/c1ccccc1)=N/N1CCN(c2ccccc2)CC1 | 2% | 8%
74 | CCc1nonc1NC(=O)c1oc2cc(C)c(Cl)cc2c1C | 2%&0% | -4%
75 | CC(C)(C)NC(=O)C(c1cccs1)N(Cc1ccco1)C(=O)c1csnn1 (centres undefined) | x | -10%

entry | SMILES | TDP1 block | N370S GC mod
76 | CC(O)CNCCCOc1cccc(C(F)(F)F)c1 (centres undefined) | 8% | -16%
77 | CN(C(=O)c1cc([N+](=O)[O-])ccc1NCc1cccnc1)c1ccccc1 | x | -21%
78 | Cc1ccc(S(=O)(=O)N2CC(C)N(C(=O)N3CCOCC3)C2)cc1 (centres undefined) | x | 0%
79 | COCCOc1cc(-n2cccc2)c(Cl)cc1Cl | 0% | 5%
80 | CC1=C(C(=O)OCc2ccccc2)C(c2ccc(C)o2)C2=C(CCCC2=O)N1 (centres undefined) | 8% | 2%
81 | CC(=O)Nc1nnc(-c2ccco2)o1 | 4% | -10%
82 | CCN(CC)S(=O)(=O)c1ccc(NC(=O)C(OC)c2ccccc2)cc1 (centres undefined) | 4% | -15%
83 | CCOC(=O)CCCn1ncn2c(cc3occc32)c1=O | 6% | 17%
84 | CCOc1ccc(S(=O)(=O)n2cc(F)c(=O)[nH]c2=O)cc1[N+](=O)[O-] | 2% | -4%
85 | COc1ccc(O)c(C2=Nc3ccccc3N=C(c3ccccc3)C2)c1 | 6% | 11%
86 | CCC(C)NC(=O)c1ccccc1NC(=O)CN(c1ccc(OC)cc1)S(C)(=O)=O (centres undefined) | 2% | 5%
87 | Cc1ccc(-c2cc(C(F)(F)F)n3ncc(C(=O)N4CCN(C)CC4)c3n2)cc1 | -2% | 14%[2.35 µM]
88 | COc1cccc(NC(=S)/C(=C(\[O-])c2ccc([N+](=O)[O-])cc2)[n+]2ccccc2)c1 | 8% | 16%
89 | COc1cc(OC)cc(C(=O)Nc2cc3nn(-c4ccccc4)nc3cc2Cl)c1 | -7% | x
90 | CCCCn1c(NC(=O)c2ccccc2)c(C#N)c2nc3ccccc3nc21 | 9% | 4%

entry | SMILES | TDP1 block | N370S GC mod
91 | CN(CCOc1ccccc1)C(=O)C1CCC(=O)N(CCc2ccc(Cl)cc2)C1 (centres undefined) | 5% | 8%
92 | CCCCc1nc(SCC(=O)N2CCCCC2)c2c(=O)n(C)c(=O)n(C)c2n1 | 1% | -7%
93 | CCN(CC(=O)Nc1c(F)cccc1F)C(=O)c1cccc(-n2cnnn2)c1 | 4% | -6%
94 | Cc1ccc(OCCOCCn2cnc3ccccc3c2=O)c([N+](=O)[O-])c1 | 5% | 3%
95 | O=C(CCc1ccccc1)Nc1nncs1 | 0% | 6%
96 | Clc1ccc(-c2nnc3n2CCCCC3)cc1 | 5% | 2%
97 | COc1cc(OC)cc(C(=O)N/N=C\c2ccoc2)c1 | -16% | 3%
98 | COc1ccc(CNC(=O)C2CCN(C(=O)c3ccc(F)cc3)CC2)cc1OC | 0% | x
99 | CC1CN(C(=O)CSc2nnc(-c3ccc(Cl)cc3)n2C)CC(C)O1 (centres undefined) | 1% | 2%
100 | Cc1ccccc1N(CC(=O)NCc1ccco1)C(=O)CNS(=O)(=O)c1ccc(F)cc1 | x | -6%
101 | COc1ccc(C(c2sc3nc(C)nn3c2O)N2CC(C)OC(C)C2)cc1OC (centres undefined) | 5% | -11%
102 | COc1ccccc1NCCC(=O)OCC(=O)NC1CCCCCC1 | 0% | 6%
103 | Nc1c(S(=O)(=O)c2ccccc2)c2nc3ccccc3nc2n1CCN1CCOCC1 | 3% | 22%
104 | CN(C)/C=C1\C(=O)N(c2ccc(F)cc2F)C(c2cccnc2)S1(=O)=O (centres undefined) | 5% | 4%
105 | O=C(c1ccco1)N1CCN(C23CC4CC(CC(C4)C2)C3)CC1 | 3% | 1%
106 | COc1ccc2nc(N3C(=O)CC(Cc4ccc(Cl)cc4)C3=O)sc2c1 (centres undefined) | -1% | -6%

# Source: PubChem BioAssay
